AID504770 – growth inhibitors of E. coli YBA685 in a screen for V. cholerae RctB (chromosome II replication) inhibitors | AID 504770 | z-score (concentration not given with the values) | E. coli YBA685 rctB-dependent plasmid, OD600 growth, 3 h; hits give low values | 130,000 compounds, 0.27% hits;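 active = z-score under -2 on both plates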;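 note: wells of about 30 µL received 100 nL stock; score is relative to mean and SD of the test wells; the first replicate is given; strong numbers were not always called active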
Ba CapD inh – blocks the Bacillus anthracis CapD enzyme; 140,000 compounds, 0.23% hits; purified CapD enzyme, fluorescence intensity read-out; hits give low values; some hits fall short of the stated cut; z-score (test concentration not listed);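 active = z-score under -4 in either of two replicates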;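 note: stock transfer was 100 nL into about 40 µL; score is relative to mean and spread of the plate; one replicate is shown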
* marks the source's active call; other numbers are inactive results; / = no result given; & = joins results of further samples.

Compound	AID504770	Ba CapD inh
CC1CN=C(N(CCc2ccccc2)C(=O)Nc2ccc(Cl)cc2)S1 (centres undefined)	0.05	0.56
COc1cc(NS(=O)(=O)c2ccc(NC(=O)CSc3nc4ccccc4s3)cc2)nc(OC)n1	/	-1.4
Cc1ccc(-c2ncc(-c3ccccc3)o2)cc1	1.1	79
O=C(CC1SC(=Nc2ccc(OC(F)F)cc2)N(CCN2CCOCC2)C1=O)Nc1ccc(F)cc1F (centres undefined)	0.55	/
CCc1cc2c(cc3c(=O)[nH]ncn32)s1	-0.25	7
CCCNC(=O)c1ccc(C(=O)NCCC)cc1	-0.8	-0.12
CN(Cc1c(F)cccc1Cl)C(=O)COc1ncnc2ccccc12	0	/
CC(=O)c1ccc(N2CCN(S(=O)(=O)c3ccccc3Br)CC2)cc1	/	1.8
O=C(CN(c1ccc(F)cc1)S(=O)(=O)c1ccccc1)Nc1ccc(S(=O)(=O)N2CCCCC2)cc1	/	-1.2
O=c1c(-c2ccc(OC3O[C@H](CO)[C@@H](O)[C@H](O)[C@H]3O)cc2)coc2cc(O)cc(O)c12 (some centres undefined)	-0.5	-1.6
Cc1nnsc1C(=O)Nc1ccccc1N1CCCCC1	-0.65	0.85
CCOC(=O)C1=C(O)/C(=C/c2ccc(Cl)cc2)SC1=Nc1ccc([N+](=O)[O-])cc1	/	-0.59
C/C(=N\NS(C)(=O)=O)c1ccc(C)cc1	0.65	0.48
CCn1c(C)cc(O)c(C(c2ccc(OC)cc2)N2CCN(C)CC2)c1=O (centres undefined)	1	/
Cc1ccc(S(=O)(=O)c2cc3cc(C(=O)Nc4ccc(C)c(C)c4)ccc3oc2=O)cc1	1.5	0.05

6 structures already listed, ordered by number of heavy atoms, lowest first.
Compound	AID504770	Ba CapD inh
C/C(=N\NS(C)(=O)=O)c1ccc(C)cc1	0.65	0.48
Cc1ccc(-c2ncc(-c3ccccc3)o2)cc1	1.1	79
CCOC(=O)C1=C(O)/C(=C/c2ccc(Cl)cc2)SC1=Nc1ccc([N+](=O)[O-])cc1	/	-0.59
O=c1c(-c2ccc(OC3O[C@H](CO)[C@@H](O)[C@H](O)[C@H]3O)cc2)coc2cc(O)cc(O)c12 (some centres undefined)	-0.5	-1.6
Cc1ccc(S(=O)(=O)c2cc3cc(C(=O)Nc4ccc(C)c(C)c4)ccc3oc2=O)cc1	1.5	0.05
O=C(CN(c1ccc(F)cc1)S(=O)(=O)c1ccccc1)Nc1ccc(S(=O)(=O)N2CCCCC2)cc1	/	-1.2

The list continues.
Compound	AID504770	Ba CapD inh
CCOC(=O)NC(=O)c1cn(C(C)C)c(=O)n(Cc2ccccc2)c1=O	/	0.18
O=c1cc(CSc2ccccc2)nc2sccn12	-1.7	-0.93
CN1C(=O)C(=Cc2ccc(Oc3ccc([N+](=O)[O-])cc3[N+](=O)[O-])cc2)C(=O)N(C)C1=O	/	0.44
CCSc1ccc(/C(N)=N/O)cn1	0.45	0.6
O=C(CCN1C(=O)/C(=C\c2cccs2)SC1=S)Nc1cccc(F)c1	/	0.21
CCOc1ccc(NC(=O)CSc2nnc3ccccn23)cc1	-0.8	/
Cc1cc(=O)[nH]c2c1c(C)nn2-c1ccccc1	-0.95&-0.15	0.4&1.2
COc1ccc(C2Nc3ccccc3C(=O)N2c2ccc(F)cc2)cc1CSc1nc2ccccc2s1 (centres undefined)	/	7.8
CCOc1ccccc1N(C)C(=O)c1cc(S(=O)(=O)NC2CCCCCC2)ccc1F	/	0.7
CCOC(=O)C(C)(C)Oc1ccc(Cl)cc1	/	0.23&0.01
COc1ccccc1-n1c(SCc2ccc(F)cc2)nc2c(c1=O)SCC2	0.95	-0.27
CCC(C(=O)Nc1ccccc1OC)n1c(C(=O)OC)cc2sccc21 (centres undefined)	1.9	-0.93
CCc1ccccc1N(CC)C(=O)c1coc(=O)c2ccccc12	0.55	-0.84
Cc1c(C(=O)N2CCN(C3CCS(=O)(=O)C3)CC2)oc2ccc(Cl)cc12 (centres undefined)	-0.45	/
C=CCNC(=S)NC1C2CN3CCN(C2)CC1(C)C3 (centres undefined)	-0.7	0.31
CN1CCc2nc(SCC(=O)Nc3ccccc3OC(F)(F)F)c(C#N)cc2C1	-1.4	-0.27
O=C(CCc1c[nH]c2ccccc12)NCCN1CCOCC1	/	0.55
O=C(Cn1cnc(S(=O)(=O)N2CCc3ccccc32)c1)NCc1ccccc1	-0.6	-0.85
Cc1nc(C(F)(F)F)ccc1C(=O)NCCNc1cccc(C(F)(F)F)n1	0.35	0.73
OCCN1CCN(C(c2ccc(C(F)(F)F)cc2)c2ccc3cccnc3c2O)CC1 (centres undefined)	/	-0.95
COc1cccc(CNC(=O)CCCOc2cc(=O)n(C)c3ccccc23)c1	-0.85	0.71
CCOC(=O)C1=C(N)Oc2cc(C)n(C)c(=O)c2C1c1ccncc1 (centres undefined)	-0.05	/
CCN(CC)c1nc(C)nc2sc(C(=O)NCc3ccc(F)cc3)c(C)c12	/	2.9
O=C(CN1CCC(N2CCCCC2)CC1)NC(c1ccccc1)c1ccccc1	0	/
CN(CC(=O)NC1CC(C)(C)NC(C)(C)C1)S(=O)(=O)c1ccc(Br)cc1	-0.35	0.26
N#Cc1c(/N=C/c2cccs2)sc2c1CCCC2	0.15	-0.74
COc1cc(/C=C2/SC(=S)N(CC(=O)O)C2=O)ccc1OCc1ccccc1	/	-2.6
CC(C)Cn1c(=O)n(C)c(=O)c2cc(C(=O)c3cc(Cl)cc(Cl)c3O)cnc21	-0.15	/
C=CCOC(=O)C1=C(C)N2CCSC2=C(C#N)C1c1ccco1 (centres undefined)	-0.35	/
C=CCNC(=S)N1CCN(C2c3cccc4cccc(c34)C2NS(=O)(=O)c2ccc(Cl)cc2)CC1 (centres undefined)	/	-0.03
Cn1c(C(=O)NCCc2ccccc2)cc(=O)n(C)c1=O	-0.65	/
O=C(CSCc1ccccc1F)NCc1ccccc1	-0.05	-0.34
COc1cc(C2C3=C(CCCC3=O)N(c3ccccc3Cl)C(=N)/C2=C(/O)c2ccc(C)cc2)cc(OC)c1OC (centres undefined)	/	0.45
CSc1nnc(C)c(/C=C/NOCc2cccc(Cl)c2Cl)n1	/	-0.08
O=C(O)c1ccc(Oc2ccc(Cl)c(F)c2)cc1	0.1	-0.23
O=C(CCl)Nc1ccccc1Sc1ncc(C(F)(F)F)cc1Cl	/	-0.36
CCCCn1cnc2cc(NCc3cc(OC)c(OC)c(OC)c3)ccc21	-0.5	42
CCN(CC)CCCNS(=O)(=O)c1ccc(F)c(F)c1	/	-0.95
N#Cc1ccc(OCC(=O)N/N=C/C2CC=CCC2)cc1 (centres undefined)	0.95	/
COc1ccccc1Nc1nc(NCC2CCCO2)c2ccccc2n1 (centres undefined)	1.3	/
Nc1nsc2ccccc12	-0.9	/
Cc1nc(Cc2nnc(SCC(=O)c3ccc4c(c3)CCCN4S(C)(=O)=O)o2)cs1	-1.1	/
COC(=O)c1sccc1OC(=O)c1ccc(Cl)cc1Cl	0.95	-0.18
O=C(CSc1nc2c(sc(=S)n2Cc2ccco2)c(=O)n1-c1ccccc1)c1ccc(O)c(O)c1	0.15	-2.5
O=C(CN(c1ccccn1)S(=O)(=O)c1ccccc1)N=Nc1c(O)[nH]c2ccccc12	-0.2	/
NC1=NC(=O)/C(=C\c2ccc(OCc3ccc(Cl)cc3Cl)cc2)S1	/	0.34
COC(=O)C1=C(N)OC2=C(C(=O)CCC2)C12C(=O)Nc1ccc(Br)cc12 (centres undefined)	/	-0.15
FC(F)(F)c1cc(C(F)(F)F)c(Br)c(-n2cccc2)c1Br	0.05	0.22
COc1cccc(NC(=O)N2CCC(N(C)Cc3cccc(Cl)c3)CC2)c1	1.2	-1.3
Cc1csc(SCC(=O)c2cc(C)n(-c3ccccc3)c2C)n1	0.95	/
Cc1ccc(C(=O)CSc2nnnn2C2CCCC2)cc1C	-0.8	/
O=C(Cn1nnc(-c2ccccc2)n1)c1ccc(S(=O)(=O)N2CCCCC2)cc1	-2.8	/
O=C(Nc1nc2ccccc2s1)c1n[nH]c(=O)c2ccccc12	-0.65	-0.32
COc1cc2c(cc1OC)CN(C(=O)CCOc1ccccc1OC)CC2	-0.9	/
COCCNC(=O)c1ccc(-n2cc(-c3ccc(Cl)cc3)cn2)cc1	/	1.1
Cc1cc(OC(=O)c2c(-c3c(Cl)cccc3Cl)noc2C)n(-c2ccc(NC(=O)c3c(-c4c(Cl)cccc4Cl)noc3C)cc2)n1	/	-0.095
COc1ccccc1-c1nc(N)n[nH]1	1.3	3.2
CCn1c(CCC(=O)O)nc2cc(S(N)(=O)=O)ccc21	-2	/
C=CCNC(=O)COc1ccc(C(C)C)cc1	-0.2	0.79
COc1ccccc1OCc1nc(C#N)c(NCCCn2ccnc2)o1	-0.4	0.21

(further entries)
Compound	AID504770	Ba CapD inh
COc1ccc(C(Cc2ccncc2)Oc2nc(C)cc(C)n2)cc1 (centres undefined)	/	-0.28
CCOc1ccccc1C(=O)N1CCN(C(=O)c2ccccc2)CC1	-1.1	/
O=C(COc1ncnc2ccccc12)N1CCCC1	-0.05	-0.77
C=CCn1c(SC(C)C(=O)NC(N)=O)nnc1-c1occc1C (centres undefined)	-0.8	/
Cc1cc(/C=C2/C(=N)N3C(=NC2=O)SN=C3S(=O)(=O)C(C)C)c(C)n1Cc1ccccc1	0.3	0.74
O=C(Nc1ccccc1)OC1CCSC1 (centres undefined)	/	-0.97
O=C(O)C1CCN(C(=O)c2ccc(-c3ccccc3)cc2)CC1	1.9	/
Cn1c(=O)cc(OCC(=O)N2CCCC2)c2ccccc21	-0.3	-0.69
O=C(CCc1nc2cccnc2n1-c1ccccc1)NCc1ccc(CN2CCOCC2)o1	-0.6	0.4
Nc1nc(-c2ccccc2)c(C(=O)c2ccccc2)s1	0.15	-1.7
CN(C(=O)/C=C\c1ccc2c(c1)OCO2)C(C(=O)Nc1ccc2c(c1)OCO2)c1ccccc1 (centres undefined)	/	0.6
NC1=NC(=O)CC(C(=O)Nc2ccc(-c3ccccc3)cc2)S1 (centres undefined)	-0.95	0.85
Cc1cc(-c2ccc(C3Nc4ccc5ccccc5c4C4=C3C(=O)CC(C)(C)C4)o2)ccc1[N+](=O)[O-] (centres undefined)	/	0.02
O=c1nc2sc3[nH]c(=O)sc3cc-2s1	-1	-1.4
Cc1c(C(=O)/C=C/N(C)C)sc2ccccc12	0.3	-2.9
O=C(O)CC1(CC(=O)Nc2ccc(N3CCCCC3)cc2)CCCCC1	0.1	-0.78
Cc1ccc(SCC(=O)NCc2ccco2)cc1	0.1	0.22
N#CC1=C(SCC(=O)Nc2ccccc2)NC(=O)CC1c1cccc(Br)c1 (centres undefined)	0.4	-0.28
CC(C)(C)CC(C)(C)NCc1ccccc1OCC(N)=O	-0.6	-0.025
FC(F)(F)c1ccc(-c2ncc(-c3nc4ccccc4o3)c(-c3ccccc3)n2)cn1	/	-0.33
CC(=O)Nc1nnc(-c2ccccc2C)s1	0.05	0.38
CCN(Cc1ccncc1)C(=O)C1CCCO1 (centres undefined)	-0.2	0.72
O=C(Cn1ccc2ccccc2c1=O)NC1CCCCCC1	1.2	1.3
Nc1nc(C2CC(=O)OC23CCCCC3)cs1 (centres undefined)	-0.35	/
O=C1CN(C(=O)c2ccc(Br)o2)C(c2ccccc2)c2cc(Cl)ccc2N1 (centres undefined)	0.25	-0.07
O=C(/C=C/Sc1nc2cc(Cl)ccc2s1)c1ccc(F)cc1	1.4	0.17
O=C1NCCCC1C(=O)N1CCCCC1 (centres undefined)	1.8	-0.14
Cc1ccc(C23CC4CC(CC(C(=O)CN5CCCC5)(C4)C2)C3)cc1	/	0.065
CC(Oc1ccc(Cl)cc1Cl)C(=O)Nc1nncs1 (centres undefined)	0.2	0.48
CC(Cc1c[nH]c2ccccc12)NC(=O)c1ccco1 (centres undefined)	-0.95	5.6
O=C1Cn2nnc(C(=O)c3ccccc3)c2C2(CCCCC2)O1	-1	-0.07
Cc1c(OCc2ccc(F)cc2)ccc2c3c(c(=O)oc12)CCCC3	0.9	36
CC(C)C(NC(=O)Cc1c[nH]c2ccccc12)C(=O)N1CCN(Cc2ccc(C(C)(C)C)cc2)CC1 (centres undefined)	/	-0.23
O=C(N/N=C1/C(=O)c2cccc3cccc1c23)c1ccc2c(c1)OCO2	0	/
O=C(Cc1ccc2c(c1)OCCO2)Nc1ccccc1C(F)(F)F	0.8	/
CC(=O)OC1N=C(c2ccc(Cl)cc2)c2cc(Br)ccc2NC1=O (centres undefined)	/	-0.77
Cc1ccc(OCCn2cccc2/C=C2/C(=N)N3C(c4ccccc4)=CSC3=NC2=O)cc1	0.75	0.33
CCOC(=O)CC(=O)NNC(=O)c1cc(-c2ccccc2)nc2ccccc12	/	7.6
COc1ccc2c(c1)CCCC2(C#N)CC#N (centres undefined)	-0.3	1.5
CCOC(=O)C(C)Sc1nnc(NC(=O)c2ccc3ccccc3c2)s1 (centres undefined)	-0.6	3
Cc1onc(-c2c(F)cccc2Cl)c1C(=O)NC(=S)NC1CCSC1=O (centres undefined)	0.05	-0.14
CC1(C)C2CCC1(CS(=O)(=O)NCc1ccc(Cl)cc1Cl)C(=O)C2 (centres undefined)	1.2	-0.92
CC(C)N(Cc1ccccc1)S(=O)(=O)c1ccc(C(=O)Nc2nnc(-c3cccs3)o2)cc1	-0.25	0.3

Source: PubChem (ICCB-Longwood Screening Facility, Harvard Medical School)
